Screening data deposited in PubChem BioAssay by National Center for Advancing Translational Sciences (NCATS).
D2 ag – human D2 receptor agonism in beta-arrestin assay. P14416. DiscoveRx PathHunter D2 beta-arrestin, luminescence, 90 min; 100% = 57 uM dopamine signal. activation, % (no concentration beside the values). 0.084% of 360,000 active; in the data active = activation above about 40%; inconclusive = about 15% to 40%; inactive = below about 15%; further: compound concentration not given in the record; the text of the record calls up to 30% inactive
Target sequence (P14416 whole entry, looked up): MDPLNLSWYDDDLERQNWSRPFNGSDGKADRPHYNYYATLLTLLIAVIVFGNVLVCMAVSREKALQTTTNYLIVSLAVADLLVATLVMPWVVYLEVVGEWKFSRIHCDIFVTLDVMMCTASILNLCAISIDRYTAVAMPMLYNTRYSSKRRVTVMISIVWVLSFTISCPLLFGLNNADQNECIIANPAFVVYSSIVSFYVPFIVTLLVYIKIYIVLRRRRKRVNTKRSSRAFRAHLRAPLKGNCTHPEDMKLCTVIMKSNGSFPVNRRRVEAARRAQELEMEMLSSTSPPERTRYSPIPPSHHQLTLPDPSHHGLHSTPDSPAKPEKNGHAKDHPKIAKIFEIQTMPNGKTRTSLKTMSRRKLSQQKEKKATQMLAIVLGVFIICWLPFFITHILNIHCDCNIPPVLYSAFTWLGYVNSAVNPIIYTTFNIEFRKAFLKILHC
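Agonist mode: compounds alone added to overnight-plated D2 PathHunter cells for 90 min at 37 C, with 57 uM final dopamine (EC100) defining full response. Beta-arrestin recruitment detected by chemiluminescent reagent, read after 1 h at ambient temperature.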
Sfp PPTase inh – Sfp phosphopantetheinyl transferase inhibition; Q9F4F7; Biochemical Sfp PPTase activity, qHTS; Potency, µM, without a hit: max response, negative = inhibition, hits mostly inhibitors; 3.5% of 310,000 active; AID 1490; active means well fitted inhibition curve with a large enough effect; inconclusive means small, poorly fitted or top-dose-only effect, or another doubt; inactive means no such curve, though single readings can be large or run the other way;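 further: the enzyme is Sfp with the accession as filed and its product quenches rhodamine fluorescence; potency means the concentration at half of the fitted maximal effect; 0% = enzyme reaction without inhibitor and -100% = no enzyme wells; top concentration of the series not given in the record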
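With Hepes-Na pH 7.6 buffer containing 10 mM MgCl2, Sfp (15 nM) modified BHQ-2-YbbR (12.5 uM) using rhodamine-CoA (5 uM). Two reads 30 minutes apart at 525/598 nm yielded each well's rate.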
gsp ag – gsp mutant agonism | 0.13% of 340,000 active | Potency, µM (titrated, usually from 76.9 µM), without a hit: at the highest dose activation (cAMP increase), most hits filed as activators | AID 624287 | gsp mutant cells, cAMP HTRF, 30 min; control for the full effect not named in the record; active = well fitted activation curve with a large enough effect; inconclusive = small, poorly fitted or top-dose-only effect, or another doubt; inactive = no such curve, though single readings can be large or run the other way; cell line not stated here;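 further: phosphodiesterase inhibitor Ro 20-1724 added with compounds to block cAMP breakdown; potency means the concentration at half of the fitted maximal effect; nearly all actives have a fitted effect of over 60% in size; about a fifth of the inactives were tested at one dose only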
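Cells stably selected in G418 were plated at 2000/well, grown 16-24 hr, then given compounds in DMSO with the PDE inhibitor […] (300 uM solution added) for 30 min at 37C; cAMP was read by HTRF.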
Menin-MLL FL inh – menin-MLL binding inhibition, fluorescein peptide | Fluorescence polarization, fluorescein-MLL peptide displacement from menin | FP activity change, % at 61.4 µM | 290,000 tested, under 10 active | AID 1766; inconclusive = falling polarisation curve, or a change in total fluorescence; inactive = total fluorescence flat and polarisation flat or rising; no compound was filed as active; the % refers to the polarisation; negative = inhibition;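 further: % of control where 0% means no effect; inhibitors lower the polarisation; unlabelled MLL peptide was the positive control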
gsp antagonist – antagonizes gsp, the McCune-Albright syndrome mutation | gsp-mutant cells, cAMP HTRF, 30 min; control for the full effect not named in the record | 0.4% of 340,000 active | Potency, µM (doses to about 76.9 µM), for the others: at the highest dose activity change, negative = inhibition, usual class: inhibitors | AID 624288; active = falling curve of any shape with a large fitted effect; inconclusive = falling curve, mostly with a smaller effect; inactive = flat or rising curve; cell line not stated here;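 further: intracellular cAMP measured with PDE inhibitor Ro 20-1724 present during compound exposure; potency means the concentration at half of the fitted maximal effect; on the % scale 0 is the no-effect control and ±100 the full control effect; nearly all actives have a fitted effect of over 65% in size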
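G418-selected cells were plated in DMEM/10% FBS for 16-24 h at 37C, then treated with compounds plus the PDE inhibitor […] (300 uM solution added) for 30 min at 37C. Intracellular cAMP was measured by HTRF after 30 min lysis at room temperature.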
PINK1 expr mod – PINK1 expression modulation; Potency, µM (series often up to 76.6 µM), without a hit: top-dose activation (PINK1 increase), usual class: activators; 0.2% of 410,000 active; PINK1 immunofluorescence, high-content cytometry, 24 h; AID 624263; active = well fitted activation curve with a large enough effect; inconclusive = small, poorly fitted or top-dose-only effect; inactive = flat fitted curve, though single readings scatter; cell line not stated here;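 further: potency means the concentration at half of the fitted maximal effect; % of control where 0% means no effect; nearly all actives have a fitted effect of over 65% in size; a mitochondrial uncoupler was the plate control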
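PINK1 protein level read as immunofluorescence by microplate cytometer in a fixed, stained stable cell line after 24 h exposure to five compound concentrations, with CCCP as control.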
ClpP mod – qHTS Assay for Activators of ClpP | 1.9% of 340,000 active | purified B. subtilis ClpP, FRET peptide cleavage, 20 min | ATP-dependent Clp protease proteolytic subunit (Bacillus subtilis (strain 168)), P80244 | Potency, µM (titrated, usually from 57.5 µM), for the others: top-dose activity change, negative = active; active = well fitted falling curve with a large enough effect; inconclusive = small, poorly fitted or top-dose-only effect; inactive = no such curve, though single readings can be large or run the other way; further: potency means the concentration at half of the fitted maximal effect; the source files actives as falling curves though it sought activators and does not explain the sign; nearly all actives have a fitted effect of over 65% in size; many hits overshoot -100%
Target sequence (P80244 whole entry, looked up): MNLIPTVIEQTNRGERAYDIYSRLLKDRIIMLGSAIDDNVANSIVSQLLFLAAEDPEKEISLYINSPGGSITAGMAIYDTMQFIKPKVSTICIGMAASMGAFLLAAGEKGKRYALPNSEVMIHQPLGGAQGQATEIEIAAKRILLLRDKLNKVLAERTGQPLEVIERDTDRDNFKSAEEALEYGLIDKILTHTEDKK
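FRET quenching reversal measured ClpP activation: 10 microg/mL B. subtilis ClpP at pH 8 with the FRET-FV decapeptide, read at 430 nm after 320 nm excitation. The 20-min minus 0-min signal was scaled between DMSO/no-enzyme wells and ADEP (5.8 microM final).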
Active calls of the source: *; ? = inconclusive; / = no result given; & = joins results of further samples; [ ] = another dose, or the depositor's remark. No enrichment for hits (roughly 5.1% active in at least one column).

SMILES	D2 ag	Sfp PPTase inh	gsp ag	Menin-MLL FL inh	gsp antagonist	PINK1 expr mod	ClpP mod
COc1ccc2ccccc2c1-c1sc(Nc2ccccc2)n[n+]1-c1ccc(F)cc1	-5.8	-16%	?	-2.2	-21%	?	-1.7%
CCCn1nc(C(=O)NC2CC2)c2ccccc2c1=O	-4.9	/	-2%	/	-4%	-0.9%	-0.4%
O=C(NCCCN1CCCC1)Nc1ccccc1[N+](=O)[O-]	-2.3	9%	19%[15.4 µM]	-1.2	4%	0.4%	-1.0%
c1ccc(CNn2c(N3CCOCC3)nc3ccccc32)cc1	-1.8	3%	-15%	-7.1	-11%	-1.0%	-0.5%
COc1ccc2[nH]c3c(c2c1)CCN1C(=O)C(CC(=O)NCCN2CCOCC2)C[C@H](C(=O)N(C(C)C)C(C)C)[C@@]31C (some centres undefined)	-4.5	/	/	/	0%	-0.5%	-10%
CC(=O)N1c2ccc(S(=O)(=O)NCC3CCC(C(=O)Nc4cccc(C)n4)CC3)cc2CC1C (centres undefined)	-1.3	14%	13%	/	?	0.8%	1.0%
O=C(CSc1nnc(-c2ccco2)n1Cc1ccco1)NCc1ccccc1	-1.9	13%	6%	0.4	2%	0.3%	-1.0%
COc1ccc(NC(=O)Nc2ccccc2C(=O)N2CCCC2)cc1	-1.9	20%	-22%	-0.9	-1%	0.1%	-0.7%
CC(C)(C)n1nnnc1C(c1ccncc1)N1CCN(C2CCCCC2)CC1 (centres undefined)	-2.0	6%	-22%	-0.3	3%	/	0.8%
COC(C[C@H]1O[C@H]1[C@H](O)COCc1ccccc1)OC	0.7	9%	10%	4.5	13%	-0.4%	0.3%
O=C1Nc2ccccc2O/C1=C\c1ccccc1Br	0.4	21%	-3%	4.4	3%	6.5%	/
CC(=O)Nc1ccc(S(=O)(=O)NCCC(=O)NNC(=O)c2ccncc2)cc1	-2.8	/	26%[15.4 µM]	/	11%	2.3%	/
COc1cccc(NC(=O)N2CCCC2C(=O)NCc2ccco2)c1 (centres undefined)	4.0	5%	-24%	/	7%	3.0%	/
COc1cc(C(=O)NCCN2C(=O)S/C(=C\c3cccs3)C2=O)cc(OC)c1OC	0.7	17%	-13%[15.4 µM]	-1.3	?	4.7%	/
O=C(CSc1nnnn1C1CCCCC1)NCc1cccc(C(=O)O)c1	-3.7	5%	-25%	4.6	4%	0.4%	2.2%
CCOC(=O)c1c(C)oc2cc(Br)c(OC(=O)N3CCOCC3)cc12	-1.3	-13%	-1%	5.9	-11%	-0.3%	-1.9%
CCOCCc1nnc(N)s1	-1.2	10%	-27%	-0.9	4%	-5.0%[38.3 µM]	-0.5%
CCC(C)NC(=O)C(Cc1ccccc1)NS(=O)(=O)c1cccc2nsnc12 (centres undefined)	-1.0	11%	4%	0.3	6%	2.5%	0.9%
COCCN(C(=O)COC(=O)C1CCC(C(C)(C)C)CC1)c1c(N)n(Cc2ccccc2)c(=O)[nH]c1=O (centres undefined)	1.5	/	-2%	/	4%	-9.8%	-3.3%
O=C(CCNC(=O)c1ccc([N+](=O)[O-])cc1)NCc1ccccc1	-3.7	/	17%[15.4 µM]	/	7%	3.4%	/
Cc1cc(Oc2ccc(C)c(Cl)c2)nc(SCC(=O)c2ccccc2)n1	-3.1	-4%	-27%	0.0	-23%	1.4%	1.8%
Cc1cc(=O)oc2cc(NC(=S)NCc3ccccn3)ccc12	-1.5	-21%	?	-2.1	2%	0.9%	4.1%
COc1ccccc1/C=C(\C#N)C(=O)c1cccn1C	-1.1	-3%	13%	-2.2	0%	2.4%	-7.6%
CCCc1ccc(C#N)c(SC2CC(=O)N(c3ccc(OC)cc3)C2=O)n1 (centres undefined)	-5.8	5%	2%[15.4 µM]	-1.8	-2%	0.8%	/
O=C(NCCCN1CCOCC1)C(=O)NCc1ccccc1	-2.8	-1%	14%[15.4 µM]	-0.8	5%	2.1%	-9.4%

Looked up above.
For gsp ag, COC(C[C@H]1O[C@H]1[C@H](O)COCc1ccccc1)OC is listed with 10%
For Sfp PPTase inh, COc1ccc2ccccc2c1-c1sc(Nc2ccccc2)n[n+]1-c1ccc(F)cc1 is listed with -16%

(listing goes on)
SMILES	D2 ag	Sfp PPTase inh	gsp ag	Menin-MLL FL inh	gsp antagonist	PINK1 expr mod	ClpP mod
Cc1cc(N=Cc2c(O)ccc3ccccc23)no1	-0.1	-13%	9%	2.1	9%	-4.6%[38.3 µM]	-16%
Cc1cc2nc(SCCOC(=O)Nc3ccc(Cl)cc3)nc(C)c2cc1C	-3.6	17%	-34%[inhibitor]	5.2	8%	-2.3%	-1.7%
COc1cc(C2/C(=C(\O)c3ccc4c(c3)CC(C)O4)C(=O)C(=O)N2CCCn2ccnc2)ccc1O (centres undefined)	0.3	19%	?	0.1	0%	-1.1%	-1.4%
Nc1ccc2nc(-c3ccccc3)sc2c1	-1.1	-14%	21%	4.5	4%	0.6%	?
C=CCn1c(SCc2ccc(C(=O)O)cc2)nc2sc(C)c(C)c2c1=O	0.1	-3%	22%	3.8	-12%	0.2%	-0.3%
CC1=C(C(=O)N2CCOCC2)CC(CC(=O)NCCCN(C)C)C(=O)N1Cc1ccc(C(C)(C)C)cc1 (centres undefined)	-5.4	/	/	/	/	0.3%	-0.6%
COc1ccccc1C(c1nnnn1Cc1ccccc1)N1CCN(C2CCCC2)CC1 (centres undefined)	-3.9	10%	0%	3.1	-12%	0.9%	0.9%
C/C=C/C(=O)N1CC2(CC(c3cccc(NC(=O)COc4ccc(Cl)cc4)c3)=NO2)C[C@@H]1C(N)=O (some centres undefined)	0.9	-6%	/	-1.4	?	-0.6%	-0.8%
CCN(CC)S(=O)(=O)c1cccc(NC(=O)c2ccc(S(=O)(=O)N3CCCC3)cc2)c1	3.7	/	?	/	?	9.8%	-1.8%
CCOC(=O)C1=NN(c2ccc(Cl)cc2)C(=O)C1	-3.1	-4%	0%	-1.2	13%	-1.4%	-28%
COc1ccc(OC)c(NC(=O)C(C)SCc2nc3sc(C)c(C)c3c(=O)[nH]2)c1 (centres undefined)	-1.6	/	-20%	/	-4%	2.8%	-5.5%
COc1ccccc1Nc1cc(C(=O)NCCCN2CCOCC2)c2ccccc2n1	1.0	?	-1%	2.8	-7%	-0.2%	1.2%
O=c1cc(C(F)(F)F)nc(-c2ccccc2OC(F)(F)F)[nH]1	0.0	10%	-4%	2.3	-6%	-0.4%	0.0%
O=C(NNC(=O)c1ccccc1OCc1ccc(F)cc1)c1ccncc1	-0.9	/	6%[15.4 µM]	/	-6%	1.6%	/
Cc1ccc(S(=O)(=O)N(CC(=O)N/N=C/c2ccc(F)cc2)c2cccc3cccnc23)cc1	-1.0	-2%	-10%	-0.5	4%	6.4%[38.3 µM]	0.3%
COc1ccc(C(C)(C)C)cc1NC(=O)c1ccc2ncsc2c1	-3.1	-1%	3%[15.4 µM]	13	-22%	0.4%	/
COCCn1c(SC(C)C(=O)NC2CC2)nnc1-c1cccc(C)c1 (centres undefined)	-6.4	/	2%	/	-7%	0.2%	-1.9%
Cn1nnnc1SCc1ccc([N+](=O)[O-])cc1	-7.1	10%	-2%[15.4 µM]	1.3	8%	-0.7%	-2.8%
Cc1ccc(NS(=O)(=O)c2ccc(C(=O)NCc3ccccn3)cc2)cc1	-6.1	13%	-41%[inhibitor]	-7.1	11%	-0.3%	-1.6%
Cc1sc2ncnc(N3CCC(C(=O)N(CC(C)C)c4nc5ccccc5s4)CC3)c2c1C	0.3	/	-5%	/	-5%	4.1%	?
CCN(C[C@H]1N[C@@](Cc2ccccc2)(C(=O)OC)[C@H]2C(=O)N(C)C(=O)[C@@H]12)C(=O)Nc1ccc(Cl)cc1	-0.3	/	/	/	-11%	5.2%	-16%
O=C(COc1ccccc1Cl)NNC(=O)c1ccc2c(=O)n3c(nc2c1)CCC3	-2.9	/	5%	/	7%	1.0%	-2.5%
O=C(O)C(c1cccs1)C1(O)CCCCC1 (centres undefined)	-4.8	/	-12%	/	9%	-1.2%	/
Cc1ccc(S(=O)(=O)NC(=NCc2ccccc2)c2ccc(F)cc2)cc1	-2.6	4%	-11%	/	-6%	0.8%	2.3%
CCC(C)[C@H](N)c1nnc(SCC(=O)Nc2cccc(Cl)c2)o1 (some centres undefined)	-1.0	11%	-23%	3.8	-1%	-3.3%[38.3 µM]	-3.1%

Next structures follow:
SMILES	D2 ag	Sfp PPTase inh	gsp ag	Menin-MLL FL inh	gsp antagonist	PINK1 expr mod	ClpP mod
CCCC[C@H]1COCCS(=O)(=O)N1Cc1ccccc1F	-1.1	13%	25%	-0.9	0%	0.1%	0.4%&1.4%
CCNc1nc2c(cnn2C)c(=O)[nH]1	-4.4	/	0%[15.4 µM]	/	3%	-2.3%	-3.0%
Cc1ccc(/C=C2\SC(=S)N(CCCC(=O)NC3CCCC3)C2=O)cc1	-1.9	8%	-11%[15.4 µM]	-2.9	7%	-0.4%	-0.6%
CCS(=O)(=O)N1CCN(S(=O)(=O)c2ccc3ccccc3c2)CC1	-4.3	10%	-14%	1.3	1%	0.9%	/
COc1cccc(NC(=O)C(OC(=O)c2cnc(C)cn2)c2ccccc2)c1 (centres undefined)	-2.5	/	-26%	/	0%	-2.7%	-2.2%
COc1ccc2[nH]c3c(=O)n(CCCCC(=O)NCCN4CCCC4)c(=S)[nH]c3c2c1	-0.3	79µM*	4%	0.7	-8%	?	-23%
CCOc1ccc2nc(NC(=O)CCn3cccc3)sc2c1	8.8	-19%	15%	5.9	-3%	-0.3%	-7.6%
COc1ccccc1OCCCn1c(=O)oc2ccccc21	-9.8	10%	-3%	3.4	2%	-0.3%	-3.0%
COc1ccc(CCNC(=O)c2cc3c(=O)n4ccccc4nc3n(C3CCCCC3)c2=N)cc1OC	-0.4	14%	11%	/	8%	-0.8%	-10.0%
Cn1c(=O)oc2cc(S(=O)(=O)Nc3ccc4c(c3)OCCO4)ccc21	-1.1	-18%	-30%	?	-18%	-1.3%	0.3%
COc1ccccc1N1CCN(C(=O)c2c(-c3c(Cl)cccc3Cl)noc2C)CC1	-0.8	-28%	29%	2.4	-18%	10%	-1.7%
